Bioassay records deposited in PubChem BioAssay by several laboratories.
T cruzi repl = T. cruzi replication inhibition. T. cruzi beta-gal in NIH3T3, luminescence, 90 h. inhibition, % (concentration not given with the values). actives 1.4% (n = 300,000). AID 1885;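 active = mean inhibition across valid replicates above about 55%, limit read from the data; inconclusive = mean below that limit but half or more replicates reach it; inactive = mean below it, under half of replicates reach it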;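 also: signal also drops with host cell toxicity which is not excluded here; 0% = plate median of DMSO wells and 100% = zero luminescence signal; higher percent means less beta-gal luminescence so fewer parasites; stock transfer was 50 nL into about 50 µL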
Ecoli rRNA inh = inhibitors of bacterial rRNA selective over humanized ribosomes. AID 720706. actives 1.6% (n = 350,000). E. coli WT GFP vs humanized-ribosome RFP mutants, fluorescence, 24 h; active compounds read low; DMSO median 0, no signal -100. GFP signal change (wild-type ribosome), % (test concentration not listed);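 active = significant combined selectivity score with lowered wild-type GFP, culture density cut under 30%, mutant RFP and density less affected; inactive = any of these conditions unmet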; also: one replicate is shown; some compounds called inactive have numbers as strong as hits
Bfl-1 A1 inh = inhibitors of the anti-apoptotic protein A1, read as caspase activation; actives 0.066% (n = 330,000); caspase activation, % (no concentration beside the values); MEF A1-2A-BIM cells, Caspase-Glo 3/7 luminescence, 3 h; percent of clofoctol response, vehicle zero; AID 2462;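 active = over half of replicate activation scores above 10%, or exactly half above 10 with the replicate mean above 10; inconclusive = replicate mean below 10 yet half the replicates above 10; inactive = over half of replicates below 10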;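 also: wells of about 30 µL received 50 nL stock; many hits fall short of the cut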
AF4-AF9 inh = MLL-AF4/AF9 protein interaction inhibition; inhibition, % at 10 µM; AlphaScreen, biotin-AF4 peptide binding to FLAG-AF9; P42568; actives 0.47% (n = 350,000); AID 651704;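 active = every replicate reaching a set inhibition limit, whatever the replicate mean, cut at about 25% in these data; inconclusive = mean inhibition reaches that limit but some replicates miss it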;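 also: 0% = plate neutral control median and 100% = total signal loss; the record names both 10 and 1 µM as test concentration; the first replicate is given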
Target sequence (P42568 whole entry, looked up): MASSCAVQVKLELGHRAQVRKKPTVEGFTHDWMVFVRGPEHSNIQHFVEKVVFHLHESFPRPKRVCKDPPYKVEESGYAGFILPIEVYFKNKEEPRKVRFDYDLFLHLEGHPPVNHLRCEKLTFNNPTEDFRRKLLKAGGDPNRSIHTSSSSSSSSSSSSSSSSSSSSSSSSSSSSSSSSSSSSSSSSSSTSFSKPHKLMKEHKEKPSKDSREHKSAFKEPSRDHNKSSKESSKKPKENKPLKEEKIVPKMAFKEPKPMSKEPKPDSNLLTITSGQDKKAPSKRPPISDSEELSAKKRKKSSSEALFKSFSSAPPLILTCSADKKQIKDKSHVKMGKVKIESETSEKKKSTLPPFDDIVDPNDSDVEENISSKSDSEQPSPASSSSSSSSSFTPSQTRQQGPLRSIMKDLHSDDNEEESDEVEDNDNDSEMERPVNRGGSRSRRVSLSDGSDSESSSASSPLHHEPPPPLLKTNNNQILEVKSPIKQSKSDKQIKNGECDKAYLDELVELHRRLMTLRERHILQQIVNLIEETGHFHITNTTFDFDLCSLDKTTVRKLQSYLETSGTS
Ecoli growth = E. coli growth inhibition; Escherichia coli growth, OD600, 23 h; active compounds read low; OD600 absorbance (no concentration beside the values); actives 0.21% (n = 330,000); AID 1053175;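 active = OD600 absorbance below the run mean of sample wells minus 3.6 SD, in any replicate, cut at about 0.56 in these data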;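 also: stock transfer was 300 nL into about 60 µL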
UCH37 inh = human UCH37 deubiquitinating enzyme inhibition; inhibition, % (no concentration beside the values); AID 588478; actives 0.33% (n = 330,000); purified proteasome/UCH37, Ub-AMC cleavage fluorescence;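 active = mean of two replicates above 20%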;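 also: 0% = compound-free wells with enzyme and 100% = wells lacking proteasome; stock transfer was 100 nL into about 20 µL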
Target sequence (Q9Y5K5 whole entry, looked up): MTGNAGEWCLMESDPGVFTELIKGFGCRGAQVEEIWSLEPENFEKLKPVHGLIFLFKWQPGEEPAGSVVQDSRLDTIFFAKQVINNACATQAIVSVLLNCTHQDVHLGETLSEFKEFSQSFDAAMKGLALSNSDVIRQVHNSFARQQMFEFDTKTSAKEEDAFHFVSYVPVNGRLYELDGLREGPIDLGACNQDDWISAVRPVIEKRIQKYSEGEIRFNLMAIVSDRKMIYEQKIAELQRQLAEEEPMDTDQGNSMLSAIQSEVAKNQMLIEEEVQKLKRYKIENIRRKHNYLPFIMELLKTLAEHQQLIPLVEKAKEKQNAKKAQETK
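Test system – human UCH37 enzyme supplied as purified proteasome complex · Incubation – 30 min preincubation with enzyme, 25 min cleavage at room temperature · Detection – AMC fluorescence from Ub-AMC cleavage, excitation 355 nm, emission 460 nm · Benchmarks – no-proteasome wells (full inhibition) and compound-free wells (no inhibition)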
FGF22 binding = shifts melting point of recombinant human FGF22; Q9HCT0; recombinant FGF22 thermal shift, SYPRO orange fluorescence; percent of sucrose octasulfate shift, DMSO zero; calls only at 9.99 µM; actives 1.5% (n = 340,000); AID 651658;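 active = melting point raised past a set limit in the mean and every replicate; inconclusive = no clear call; three in four hits are not shown here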
Target sequence (Q9HCT0 whole entry, looked up): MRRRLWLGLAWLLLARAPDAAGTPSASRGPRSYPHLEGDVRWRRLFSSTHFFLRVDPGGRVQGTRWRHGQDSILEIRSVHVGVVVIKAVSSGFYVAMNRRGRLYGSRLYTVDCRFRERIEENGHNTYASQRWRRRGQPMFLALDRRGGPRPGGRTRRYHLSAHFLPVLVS
Beta apoptosis = blocks beta cell apoptosis | INS-1E cytokine-induced death, ATP luminescence, 48 h; percent of positive-control rescue, neutral wells zero | protection from apoptosis, % (no concentration beside the values) | actives 0.8% (n = 300,000);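 active = all replicates at 75% or more, or half of them and the mean; inconclusive = half reach 75% but not the mean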;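 also: 0% = cytokine-treated negative control wells and 100% = positive control rescue; higher means more ATP so stronger rescue from cytokine killing; wells of about 40 µL received 100 nL stock; the first replicate is given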
Ecoli rRNA inh OD600 = further read-out of Ecoli rRNA inh, marked with its call; OD600 change, %; measured here: OD600 growth;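 optical density of the mix in the first replicate; 0 = DMSO median and -100 = no signal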
Ecoli rRNA inh RFP = further read-out of Ecoli rRNA inh, marked with its call; RFP signal change, %; measured here: RFP humanized mutant strains;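 first replicate; 0 = DMSO median and -100 = no signal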
* hit, by the source's call; i = inactive; ? = inconclusive; · = no result given.

SMILES	T cruzi repl	Ecoli rRNA inh	Ecoli rRNA inh OD600	Ecoli rRNA inh RFP	Bfl-1 A1 inh	AF4-AF9 inh	Ecoli growth	UCH37 inh	FGF22 binding	Beta apoptosis
CCOC(=O)C1=C(CC)Nc2ccccc2N=C1NC(=O)c1ccc(S(=O)(=O)N2CCOCC2)cc1	4	-8	-9	-1.9	0.5	2.2	0.67	-1.8	i	-4
COc1ccccc1CNC(=O)C1CCCC1	7	8	10	-0.4	-0.6	1.1	0.69	2.5	i	-2
CC1CN(/C(=N\S(=O)(=O)c2ccccc2)c2ccccc2)CC(C)O1 (centres undefined)	4	9	3	1.6	0.1	2.9	·	·	i	0
COc1ccc(C2CC(=O)C=C(NC3CCCC3)C2)cc1 (centres undefined)	0	·	·	·	-0.7	·	0.66	0.7	·	0
Cc1n[nH]c(=O)c2c(NC(=O)CSc3nn(-c4ccccc4)c(=S)s3)oc(C)c12	-6	3	4	5.6	1.1	-1.2	0.68	7.7	i	-3
CC(=O)CCc1ccc(OCC(O)CNCCOc2ccc(C)cc2)cc1 (centres undefined)	40	0	0	2.6	0.0	1.5	0.66	6.3	i	0
Cc1cc(C)nc(/N=C(\N)Nc2ccc(SC(F)F)cc2)n1	6	8	-15	-3.5	-0.3	-32	·	·	i	13
OCCN(CCO)CC(O)CN1c2ccccc2Sc2ccccc21 (centres undefined)	4	·	·	·	-0.9	·	0.66	2.5	·	0
CCOC(=O)N1CCC(NC(=O)c2ccc3c(=O)n4c(nc3c2)CCCC4)CC1	-14	·	·	·	-0.4	·	0.67	3.2	·	·
COc1ccccc1OCCNC(=O)CN1C(=O)NC2(CCCC2)C1=O	·	-1	-3	-1.4	·	7.3	0.69	4.0	i	·
NC(=O)C1CCN(C(=O)c2cc(Cl)c3c(c2)OCCO3)CC1	·	20	7	2.6	0.2	-11	0.68	0.8	i	-5
CS(=O)(=O)c1cnc2c(S(=O)(=O)c3ccccc3)cnn2c1N	-5	18	9	5.2	-0.8	0.0	0.7	1.7	i	-11
O=C(O)CCN1C(=O)/C(=C/c2cn(-c3ccccc3)nc2-c2cccs2)SC1=S	·	12	6	5.2	·	-0.9	0.68	9.9	i	·
COc1ccc(NC(=O)c2sc3nc(N4CCCC4)c4c(c3c2N)CC(C)(C)OC4)c(OC)c1	22	11	8	1.5	-0.2	6.7	·	·	i	-6
COc1ccc(C(=O)Nc2nnc(C)s2)cc1S(=O)(=O)N1CCOCC1	·	·	·	·	0.0	-0.1	0.71	7.0	i	-2
COc1cc(/C=C/C(=O)O)cc(S(=O)(=O)Nc2ccccc2C(=O)NCc2ccco2)c1OC	·	6	13	-1.9	-0.9	1.3	0.67	2.4	i	0
O=C(COC(=O)/C=C/c1ccc(Cl)cc1)NC1CC1	·	3	15	-2.9	0.4	-13	0.66	0.7	i	3
CCN1C(=S)SC(=O)C1=C1C=C(C)N(CCO)C(C)=C1	0	·	·	·	-2.4	·	0.7	18	·	-3
CCOC(=O)c1c(-c2cccs2)csc1NC(C)=O	14	·	·	·	0.0	·	0.68	0.5	·	-8
CCC(=O)Nc1c2c(nn1-c1ccccc1C)CSC2	-13	·	·	·	-0.3	·	0.7	1.4	·	·
CCn1nc(C)c(/C=N/NC(=O)CSc2ccccn2)c1C	-11	-5	0	1.2	-0.4	0.9	·	·	i	-8
O=C(Cc1cccs1)Nc1ccc(F)cc1F	-29	-6	2	-1.2	0.4	6.1	0.72	0.7	i	·
CC(C)(C)n1nc2c(c1NC(=O)COc1ccc3ccccc3c1)CS(=O)(=O)C2	2	·	·	·	0.4	·	0.69	1.3	·	-4
Cc1cc(C(=O)COC(=O)c2cccc(O)c2)c(C)n1C1CC1	·	5	1	2.6	-14	0.8	0.72	1.8	i	2
CCN1CCN(S(=O)(=O)c2cccc([N+](=O)[O-])c2)CC1	-5	·	·	·	0.8	·	0.66	2.4	·	-4
CCCn1nnc(NC(=O)/C=C/c2cc(Br)ccc2OC)n1	10	3	-12	-1.9	1.2	-1.4	0.72	-30	i	5
CCOC(=O)C1CCCN(c2c(NCC3CCCN3CC)c(=O)c2=O)C1 (centres undefined)	6	15	14	-1.7	1.3	-4.8	0.75	4.7	i	-2
COc1ccc(CC(=O)Nc2nnc(C(C)(C)C)s2)cc1OC	-5	-1	-2	0.8	1.2	-2.7	0.68	4.8	i	-3
CCOC(=O)C1=C(C)NC(=S)NC1c1ccc(-c2cccc(Cl)c2C)o1 (centres undefined)	44	·	·	·	-0.1	·	0.78	-2.3	·	12
Cc1ccc(-c2nc3ccccc3s2)cc1NC(=S)NC(=O)/C=C/c1ccco1	-13	·	·	·	-0.7	·	0.84	7.5	·	8
O=C(N1CCOCC1)N1CCC(n2nnc3ccccc32)CC1	-3	·	·	·	-0.9	·	0.68	0.5	·	3
Nc1nc(SCc2ccccc2)c2ncn(Cc3ccccc3)c2n1	·	-17*	-25*	4.1*	·	-0.7	0.62	0.7	i	·
CCCN(CCC)C(=O)C1CCC(CNS(=O)(=O)c2cccc3nsnc23)CC1 (centres undefined)	7	-9	-12	2.6	·	-2.9	0.69	3.1	i	·
Cc1nn(CC(=O)NC(C)c2ccccc2)c(=O)c2ccccc12 (centres undefined)	-7	·	·	·	0.1	·	0.66	3.7	·	-3
Cc1ccc(NC(=O)c2ccc3c(c2)[nH]c(=O)n3C(C)C)cc1	4	-27	-37	-13	0.3	0.2	0.69	3.3	i	1
O=C(COc1cccc(OC(F)F)c1)Nc1ccc(SC(F)F)cc1	9	·	·	·	0.4	·	0.69	2.4	·	-1
CCN1C(=O)C(NC(C)=O)c2cc(Br)ccc21 (centres undefined)	-8	·	·	·	0.2	·	0.79	3.6	·	-4
CCn1c(COc2ccc(C)cc2)nnc1SCC(=O)NNC(=O)c1ccc(OC)cc1	-35	·	·	·	0.5	·	0.69	5.8	·	-5
CCCCC1=NN2C(=N)CC(=O)N=C2S1	-2	·	·	·	0.0	·	0.68	2.7	·	-2
O/N=C/c1ccc(-c2ccccc2OC(F)(F)F)o1	7	-19	-22	0.2	0.3	4.0	·	·	i	31
NS(=O)(=O)c1ccc(CCNC(=O)CN2CCC(Cc3ccccc3)CC2)cc1	-8	3	-1	-5.7	0.6	0.5	0.69	-0.1	·	9
CCCCn1c(N)c(N(CC(C)C)C(=O)C2CC(=O)N(CCc3ccccc3)C2)c(=O)[nH]c1=O (centres undefined)	-19	3	11	0.1	-1.9	-6.8	0.7	4.3	i	·
Cc1c(C#N)c2ccccc2n1CC(=O)NC(C)c1ccccc1 (centres undefined)	0	·	·	·	0.4	·	0.66	1.2	·	0
CN(C)S(=O)(=O)c1ccc(N2CCCC2)c(C(=O)OCC(=O)NC2(C#N)CCCCC2)c1	6	·	·	·	0.9	·	0.7	6.1	·	16
NNC(=O)c1ccc(CSc2nc3ccccc3s2)cc1	9	-17	-33	-1.4	-1.6	-0.4	0.64	-1.1	i	4
CCOC(=O)c1ccc(Nc2nc(C)nc3c2nnn3Cc2ccccc2)cc1	21	8	12	3.3	0.3	1.9	0.71	-122	i	·
COc1ccc(CNCCc2ccc(Cl)cc2)cc1OCc1ccccc1	70*	·	·	·	?	·	0.64	-0.8	·	40
CC(C)CNc1c(N)n(CC(C)C)c(=O)[nH]c1=O	·	8	4	0.0	·	0.0	0.68	-8.6	i	·
CC(C)(C)N(CC#CCC(O)(c1ccccc1)C1CCCC1)CCO (centres undefined)	-9	-4	-5	1.3	-0.6	-0.7	0.66	5.8	i	0
Cc1ccc(NC(=O)CCC(=O)N2CCC(C)CC2)c([N+](=O)[O-])c1	3	-7	-10	-0.5	-0.1	3.0	0.68	2.5	i	3
Cc1ccc(C(=O)NC2(O)C(=O)c3ccccc3C2=O)cc1C	-26	6	15	0.3	0.8	-8.1	0.63	78*	i	2
COc1ccc(C2/C=C\CN(C(=O)NC34CC5CC(CC(C5)C3)C4)CC(=O)N2Cc2ccc(F)cc2)cc1 (centres undefined)	28	·	·	·	0.3	·	·	1.0	·	12
CCn1c(=N)n(CC(=O)c2ccco2)c2ccccc21	-6	·	·	·	-0.1	·	0.7	0.2	·	6
Cc1nnc(SCC(=O)NC23CC4CC(CC(C4)C2)C3)s1	-14	17	11	3.5	0.2	-1.5	0.72	0.4	i	-3
Cc1cccc(OCCCC(=O)Nc2nnc(C3CCCO3)s2)c1C (centres undefined)	-5	19	19	1.4	0.4	-1.5	0.73	-0.8	i	-4
N=c1oc2ccc([N+](=O)[O-])cc2cc1C(=O)NCc1ccccc1	-1	-3	-4	-0.8	-0.7	4.5	0.7	5.2	·	10
CC(=O)Nc1cc(C(=O)N(C)Cc2ccco2)ccc1Sc1ccc(Cl)cc1	-3	-12	-16	-6.0	-0.2	2.5	0.75	5.3	i	1
Cc1cc(C)c(S(C)(=O)=O)c(=O)[nH]1	-7	24	15	3.8	0.5	-0.8	0.74	-1.1	i	0
CCOC(=O)CSC1=C(C#N)C(=O)NC2(CCCCC2)S1	-18	·	·	·	0.1	·	0.63	15	·	-2
Oc1ccc(C(=S)N2CCN(c3cccc(Cl)c3)CC2)cc1	13	-29	-40	-4.5	0.2	-1.7	0.62	3.6	i	2

(continued)
SMILES	T cruzi repl	Ecoli rRNA inh	Ecoli rRNA inh OD600	Ecoli rRNA inh RFP	Bfl-1 A1 inh	AF4-AF9 inh	Ecoli growth	UCH37 inh	FGF22 binding	Beta apoptosis
COc1cccc(OC)c1C(=O)NC(=O)Nc1c(F)c(F)c(F)c(F)c1F	-7	5	14	-0.9	0.2	-5.0	0.63	2.6	i	1
O=C(NCc1cccc(Cl)c1)c1ccc2nc[nH]c2c1	-36	·	·	·	1.2	·	0.66	1.6	·	-1
Cc1cc(C)n2nc(SCCOc3ccccc3F)nc2n1	5	4	-2	-0.7	0.0	-1.8	0.69	-1.6	i	1
CC(C(=O)Nc1ccccc1Cl)N(c1ccccc1)S(C)(=O)=O (centres undefined)	13	6	8	-8.8	0.9	-0.9	0.68	0.4	i	-7
CCn1c(C(=O)O)c(S(=O)(=O)c2ccc(Cl)cc2)c2ccccc21	-3	-2	-1	1.1	1.2	-20	0.66	1.7	i	0
COc1cc(NC(=O)c2ccc(Br)o2)ccc1NC(=O)c1ccccc1Cl	-1	·	·	·	0.6	·	0.68	4.4	·	·
O=C(O)CCc1ccc(-c2ccc(Cl)cc2)n1CC(=O)Nc1ccccc1	1	-1	-7	-0.7	-1.0	3.7	0.7	-8.4	i	-11
COCCNC(=O)c1ccc(NS(=O)(=O)c2cc(C)ccc2C)cc1	-3	·	·	·	0.9	·	0.75	4.2	·	8
COc1cc2c(cc1OC)C(c1cccc(F)c1)CC(=O)N2 (centres undefined)	-4	1	14	0.1	0.0	-7.1	·	·	i	-2

These rows are one share of the data; rates above refer to the full screens.
